PD-1 reversal: reversal of PD-1 mediated T-cell inhibition | activation, % (test concentration not listed) | 29,000 tested, under 10 active | primary human CD4 T cells, PD-L1 beads, CellTiter-Glo 96 h;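 active = replicate mean of 50% or more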;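 also: 0% = median vehicle wells and 100% = positive control; 100 nL library stock added to about 50 µL; numbers are from one replicate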
Hedgehog inh: blocks Sonic Hedgehog signaling | Shh-LIGHT2 Gli-luciferase reporter, 30 h | inhibition, % (no concentration beside the values) | 22,000 compounds, 2.1% hits;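 active = replicate mean of 65% or more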;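 also: pathway switched on by Shh-conditioned medium diluted 1 in 25 in low serum; 100 nL library stock added to about 40 µL; 0% = median of neutral wells and 100% = positive control level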
YB-1 expression: YB-1 expression inhibition; 30,000 compounds, 0.37% hits; delta delta Cp (YB-1 minus CDIP) (no concentration beside the values); AID 434959; U2OS, qRT-PCR YB-1 vs CDIP delta delta Cp, 16 h; active compounds read high; zero = DMSO, each unit about twofold;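 active = delta delta Cp rounded down to an integer at or above 3, about 3 SD of DMSO wells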;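 also: higher means less YB-1 transcript or more CDIP transcript relative to DMSO; stock transfer was 100 nL into about 100 µL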
MITF inhib: inhibitors of MITF. inhibition, % (no concentration beside the values). 37,000 compounds, 0.28% hits. TRPM1 promoter luciferase, luminescence, 24 h;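 active = most replicates at 85% or more, or half of them and the mean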;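 also: human melanocyte line stably carrying TRPM1 promoter luciferase reporter; 0% = vehicle wells and 100% = a positive control; the first replicate is given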
* marks the source's active call; other numbers are inactive results; . = no result given. Some of the compounds tested. The share of hits here may be higher or lower than overall.

Second line of a record: PD-1 reversal	Hedgehog inh	YB-1 expression	MITF inhib
1	COc1ccc(NC(=O)Nc2ccc3c(c2)C(=O)N([C@@H](C)CO)C[C@@H](C)[C@H](CN(C)C(=O)Nc2ccc(C(F)(F)F)cc2)O3)cc1
 : 0.9	12	-0.31	1
2	COCc1cc(=O)n2[nH]c(Nc3cc(Cl)ccc3C)nc2n1
 : 0.0	3	-0.011	-14
3	COc1ccc(S(=O)(=O)N(C)C[C@@H]2Oc3ccc(NC(=O)Cn4cnnn4)cc3CC(=O)N([C@@H](C)CO)C[C@@H]2C)cc1
 : 0.3	-26	-0.2	-1
4	COc1cc(-c2c(C)cc(O)cc2O[C@@H]2O[C@H](CO)[C@@H](O)[C@H](O)[C@H]2O)oc(=O)c1
 : -0.8	-6	-0.74	-17
5	O=C(CCCN1CCC(O)(c2ccc(Br)cc2)CC1)c1ccc(F)cc1
 : 4.3	-37	0.67	1
6	CC(c1ccco1)N(C(=O)c1sc2ccccc2c1Cl)c1ccccn1 (stereo not drawn)
 : 0.3	.	-0.26	18
7	C[C@H]1CN([C@@H](C)CO)C(=O)c2cccc(NS(=O)(=O)c3ccccc3)c2O[C@@H]1CN(C)Cc1ccc(C(=O)Nc2ccccc2N)cc1
 : -2.4	.	-0.28	-3
8	COc1ccc2ccc(=O)oc2c1CC=C(C)C
 : .	1	-0.48	-12
9	C[C@@H]1CN([C@H](C)CO)C(=O)Cc2cc(NC(=O)Cc3cn(C)c4ccccc34)ccc2O[C@H]1CN(C)C(=O)Nc1ccc(F)cc1
 : -2.3	-24	-0.3	7
10	Nc1ccc(C(=O)CC(=O)Nc2ccc(Cl)cc2)cc1
 : 0.1	-12	0.15	3
11	Cn1c(SCC(=O)Nc2cccc(O)c2)nnc1-c1ccco1
 : 2.2	.	.	7
12	COc1ccc(NC(=O)N(C)C[C@H]2Oc3c(NS(=O)(=O)c4cccs4)cccc3C(=O)N([C@H](C)CO)C[C@H]2C)cc1
 : .	-5	-0.0084	2
13	Cc1c(Cl)c(C(F)(F)F)nn1CCCNC(=O)Nc1cccc([N+](=O)[O-])c1
 : -0.7	.	.	20
14	C[C@@H]1CN([C@@H](C)CO)C(=O)Cc2cc(N(C)C)ccc2O[C@@H]1CN(C)S(=O)(=O)c1ccc(Cl)cc1
 : -0.4	-18	0.11	5
15	Cc1cc(C(=O)Nc2cccc3c2O[C@@H](CN(C)C(=O)Nc2ccccc2)[C@@H](C)CN([C@H](C)CO)C3=O)n(C)n1
 : -1.8	-29	0.23	-9
16	Cc1cc(C(F)(F)F)c2c(n1)sc1c(=O)[nH]c(C)nc12
 : -0.9	14	-0.0062	-11
17	C[C@H]1CN([C@@H](C)CO)C(=O)c2cc(NS(C)(=O)=O)ccc2O[C@@H]1CN(C)S(C)(=O)=O
 : 1.4	-18	0.025	7
18	C[C@@H]1CN([C@@H](C)CO)C(=O)c2cccc(NS(=O)(=O)c3ccccc3)c2O[C@H]1CN(C)C
 : 2.3	-1	0.24	3
19	C[C@H](CO)N1C[C@H](C)[C@@H](CN(C)Cc2ccc3c(c2)OCO3)Oc2c(NC(=O)CCCCCC(=O)Nc3ccccc3N)cccc2C1=O
 : -0.4	.	0.39	24
20	COc1ccc(Nc2nc(N)nc(CSc3nccn3C)n2)cc1
 : 1.1	.	.	-43
21	CC(C)NC(=O)N(C)C[C@H]1Oc2ccc(NC(=O)Cc3cn(C)c4ccccc34)cc2C(=O)N([C@H](C)CO)C[C@@H]1C
 : -1.4	.	1	11
22	CC(C)NC(=O)Nc1cccc2c1O[C@H](CN(C)S(=O)(=O)c1cn(C)cn1)[C@H](C)CN([C@H](C)CO)C2=O
 : .	1	-0.031	-4
23	O=C(NCc1ccco1)C1CCC(N2C(=O)C3C4CCC(C4)C3C2=O)CC1 (stereo not drawn)
 : 0.5	.	.	-24
24	ON=C(Cc1ccccc1)Cc1ccccc1
 : -2.0	30	-0.15	-10
25	C[C@@H]1CN([C@@H](C)CO)C(=O)Cc2cc(NS(C)(=O)=O)ccc2O[C@@H]1CN(C)S(=O)(=O)c1ccc(Cl)cc1
 : -0.6	-38	0.15	-16
26	CCN1C(=C(C#N)C#N)C=Cc2ccccc21
 : -0.4	.	1	-6
27	Cc1sc(/N=C/c2ccccc2O)c(C#N)c1C
 : -1.1	.	-0.15	-6
28	C[C@@H]1CCCCO[C@@H](CN(C)CC2CC2)[C@@H](C)CN([C@H](C)CO)C(=O)c2cc(NC(=O)CCCN(C)C)ccc2O1
 : 1.4	-19	-0.5	-11
29	Cc1noc(C)c1NC(=O)N(C)C[C@@H]1Oc2c(NS(=O)(=O)c3cccs3)cccc2C(=O)N([C@H](C)CO)C[C@H]1C
 : .	-1	0.32	-2
30	C[C@@H]1CN([C@H](C)CO)C(=O)Cc2cc(NS(=O)(=O)c3ccccc3)ccc2O[C@H]1CN(C)S(C)(=O)=O
 : -0.5	-9	0.15	6
31	C[C@@H]1CN([C@@H](C)CO)C(=O)c2cc(NC(=O)CCCN(C)C)ccc2O[C@H]1CN(C)Cc1ccc2c(c1)OCO2
 : 1.2	-45	0.25	10
32	Cc1c(CCC(=O)O)c(=O)oc2cc(OCc3cccc(Cl)c3)ccc12
 : 1.7	.	.	-29
33	COc1ccc(NC(=O)N(C)C[C@H]2Oc3ccc(NS(=O)(=O)c4cccs4)cc3CC(=O)N([C@H](C)CO)C[C@H]2C)cc1
 : 1.1	48	-0.0092	4
34	CC(C(=O)Nc1cccc([N+](=O)[O-])c1)N1C(=O)C2C3C=CC(C4CC34)C2C1=O (stereo not drawn)
 : -0.5	.	.	-4
35	CCC(C)CCC(O)C1=C(C)C(O)OC1=O (stereo not drawn)
 : 0.4	-15	-0.94	2
36	COc1ccc(NC(=O)N(C)C[C@H]2OCCCC[C@@H](C)Oc3ccc(NC(=O)CCC(F)(F)F)cc3C(=O)N([C@H](C)CO)C[C@@H]2C)cc1
 : -1.7	5	-0.29	-33
37	COc1ccc(NC(=O)Nc2cccc3c2O[C@@H](CN(C)Cc2ccc(Cl)c(Cl)c2)[C@H](C)CN([C@@H](C)CO)C3=O)cc1
 : -5.9	-39	-0.14	65
38	C[C@H]1CN([C@@H](C)CO)C(=O)c2cc(NS(=O)(=O)c3ccc(Cl)cc3)ccc2O[C@@H]1CN(C)CC1CC1
 : 1.3	-3	-0.34	1
39	CSc1scc2c1-c1nc(SCC(=O)c3ccc(Cl)cc3)ncc1CC2
 : 1.1	19	-0.078	14
40	C[C@H](CO)N1C[C@H](C)[C@H](CN(C)S(=O)(=O)c2ccccc2)Oc2ccc(NC(=O)CCC(F)(F)F)cc2C1=O
 : 1.3	.	-0.16	-11
41	Cc1ccc(C)c(S(=O)(=O)NC(C)C(=O)Nc2ccc(Br)cc2F)c1 (stereo not drawn)
 : -2.8	.	.	25
42	COc1cc(NC(=O)CSc2nc(C)cc(C)n2)cc(OC)c1OC
 : -3.2	.	.	24
43	C[C@H](CO)N1C[C@H](C)[C@H](CN(C)S(=O)(=O)c2cccs2)Oc2ccc(NC(=O)Cc3ccccc3)cc2CC1=O
 : 0.4	-10	-0.16	3
44	COc1ccc(CN(C)C[C@@H]2Oc3c(NS(=O)(=O)c4ccccc4)cccc3C(=O)N([C@H](C)CO)C[C@@H]2C)cc1
 : 0.7	-119	0.063	4
45	COc1cccc(C(=O)N(Cc2nc(-c3ccc(C)cc3)no2)C(C)C)c1
 : -0.3	.	.	14
46	CCOc1ccc(Oc2nc(N(CC)CC)nc(N3CCOCC3)n2)nn1
 : -1.0	.	.	-4
47	Cc1cc(C(=O)Nc2ccc(S(=O)(=O)Nc3nccs3)cc2)c(C)o1
 : 1.8	.	.	-38
48	CS(=O)(=O)N(CC(=O)Nc1cc(Cl)ccc1Oc1ccccc1)c1ccccc1Br
 : -3.1	.	.	2
49	C[C@@H]1CN([C@@H](C)CO)C(=O)c2cccc(NC(=O)C3CCOCC3)c2O[C@H]1CN(C)C(=O)Nc1cccc2ccccc12
 : .	16	-0.084	0
50	Cc1c(N=C2NC(=O)C(CC(=O)Nc3ccccc3)S2)c(=O)n(-c2ccccc2)n1C (stereo not drawn)
 : 2.1	.	.	7
51	COc1cc(OC)c(NC(=O)CSc2nnc(-c3ccncc3)n2C)cc1Cl
 : 3.1	.	.	-18
52	CC(C)NC(=O)N(C)C[C@@H]1Oc2ccc(NC(=O)c3ccncc3)cc2C(=O)N([C@H](C)CO)C[C@@H]1C
 : 1.2	.	-0.19	7
53	C[C@H](CO)N1C[C@H](C)[C@H](CN(C)CC2CCCCC2)Oc2ccc(NC(=O)Nc3ccc(C(F)(F)F)cc3)cc2C1=O
 : -6.4	40	-0.14	0
54	COc1cc2c(c(O)c1CO)C(=O)CCC2O (stereo not drawn)
 : 2.0	-14	-0.24	-20
55	C[C@H]1CN([C@@H](C)CO)C(=O)c2cc(NC(=O)Nc3ccccc3)ccc2O[C@@H]1CN(C)Cc1ccc(C(F)(F)F)cc1
 : 0.9	7	0.16	11
56	C[C@@H]1CN([C@H](C)CO)C(=O)c2cc(NS(=O)(=O)c3cn(C)cn3)ccc2O[C@@H]1CN(C)Cc1ccc(C(=O)Nc2ccccc2N)cc1
 : 0.4	.	0.39	-24
57	Cc1cc(C(=O)Nc2cccc3c2O[C@H](CN(C)C(=O)NC2CCCCC2)[C@H](C)CN([C@@H](C)CO)C3=O)n(C)n1
 : 0.7	-6	-0.17	-3
58	C[C@@H]1CN([C@@H](C)CO)C(=O)c2cc(NC(=O)CCN3CCOCC3)ccc2O[C@@H]1CN(C)C
 : 0.1	-26	-0.089	-1
59	CC(C)NC(=O)N(C)C[C@@H]1Oc2ccc(NC(=O)Nc3ccccc3)cc2CC(=O)N([C@H](C)CO)C[C@H]1C
 : .	0	-0.0034	-2
60	Cc1oc2cc(OC(C)C)ccc2c(=O)c1-c1ccc2c(c1)OCCO2
 : -0.4	-14	6.9*	-21

Single records (already shown):
`C[C@@H]1CN([C@@H](C)CO)C(=O)c2cc(NC(=O)CCCN(C)C)ccc2O[C@H]1CN(C)Cc1ccc2c(c1)OCO2` in the list: PD-1 reversal = 1.2; Hedgehog inh = -45; YB-1 expression = 0.25; MITF inhib = 10
`Cc1c(CCC(=O)O)c(=O)oc2cc(OCc3cccc(Cl)c3)ccc12` in the list: PD-1 reversal = 1.7; Hedgehog inh = .; YB-1 expression = .; MITF inhib = -29

The results go on:
Second line of a record: PD-1 reversal	Hedgehog inh	YB-1 expression	MITF inhib
61	Cc1nc(-c2cc(C#N)c(SCCNS(=O)(=O)c3ccc(C(C)(C)C)cc3)nc2C)cs1
 : 0.5	90*	-0.65	7
62	COc1ccc(NC(=O)Nc2ccc3c(c2)CC(=O)N([C@H](C)CO)C[C@H](C)[C@H](CN(C)S(=O)(=O)c2ccc(OC)cc2)O3)cc1
 : 1.2	16	0.1	-8
63	Cc1ccc(S(=O)(=O)NC(C)C(=O)Nc2c(C)cc(C)cc2C)cc1 (stereo not drawn)
 : 1.0	.	.	11
64	COc1cc(NC(=O)COc2ccc(C(C)C)cc2)ccc1-c1cc2ccccc2oc1=O
 : 0.0	.	.	17
65	C[C@@H]1CN([C@H](C)CO)C(=O)c2cccc(NS(C)(=O)=O)c2O[C@@H]1CN(C)Cc1ccc(C(F)(F)F)cc1
 : .	6	-0.26	-20
66	COc1ccc(NC(=O)N(C)C[C@@H]2Oc3c(NS(=O)(=O)c4ccc(Cl)cc4)cccc3C(=O)N([C@@H](C)CO)C[C@H]2C)cc1
 : 1.6	27	0.4	-1
67	COc1ccc(NC(=O)N(C)C[C@@H]2Oc3c(NS(=O)(=O)c4cn(C)cn4)cccc3C(=O)N([C@H](C)CO)C[C@H]2C)cc1
 : 2.5	13	0.66	0
68	COc1ccc(Oc2c(C(F)(F)F)oc3cc(OCC(=O)Nc4ccccc4F)ccc3c2=O)cc1
 : -7.0	.	.	47
69	C[C@@H]1CN([C@@H](C)CO)C(=O)c2cc(NC(=O)Nc3ccccc3)ccc2O[C@H]1CN(C)Cc1ccc(C(F)(F)F)cc1
 : 0.8	.	2.4	18
70	C[C@H]1CN([C@@H](C)CO)C(=O)c2cc(NC(=O)Nc3ccc(C(F)(F)F)cc3)ccc2O[C@H]1CN(C)Cc1ccccc1
 : -3.0	.	-0.045	30
71	O=c1[nH]c(=S)[nH]c(O)c1C=Nc1cccc(O)c1
 : 0.0	-8	-0.15	-4
72	C[C@H](CO)N1C[C@H](C)[C@@H](CN(C)Cc2ccc(C(=O)O)cc2)Oc2ccc(NS(=O)(=O)c3ccc(Cl)cc3)cc2C1=O
 : .	-73	-0.083	1
73	COC(=O)c1ccccc1NC(=O)COc1ccc(C(C)C)cc1Br
 : -3.2	.	.	-38
74	Cc1ccc(S(=O)(=O)Nc2ccc3c(c2)CC(=O)N([C@@H](C)CO)C[C@H](C)[C@H](CN(C)S(=O)(=O)c2c(C)noc2C)O3)cc1
 : 0.6	-53	-0.083	-3
75	CCCn1c2ccccc2c2nnc(SCC(N)=O)nc21
 : -0.7	.	.	7
76	C[C@@H]1CN([C@H](C)CO)C(=O)c2cc(NC(=O)c3ccncc3)ccc2O[C@@H]1CN(C)Cc1ccc(-c2ccccc2)cc1
 : .	-13	-0.28	-15
77	C[C@@H]1CN([C@H](C)CO)C(=O)Cc2cc(NC(=O)CCC(F)(F)F)ccc2O[C@@H]1CN(C)C(=O)Nc1ccc(C(F)(F)F)cc1
 : -0.5	12	0.38	-8

Screening data as filed in PubChem.
